High-throughput results deposited in PubChem by several laboratories.
Env fusion inh: HIV envelope-mediated fusion inhibition; HeLa-JRFL Env/CEM21 cell fusion, luciferase; inhibition, % at 12.3 µM; 360,000 tested, 1.1% active;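 active = mean replicate inhibition score of at least 50 and every replicate individually at or above 50; inconclusive = only one of the two criteria met; inactive = mean below 50 and not all replicates reaching 50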;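 also: 0% = plate neutral controls and 100% = maraviroc near 300 nM; one replicate is shown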
Rce1 inhib: inhibitors of yeast Ras-converting enzyme; yeast membranes, quenched prenylated peptide cleavage fluorescence; 290,000 tested, 0.27% active; AID 2563; calls only;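 active = fall in fluorescence gain of 50% or more versus controls, with final raw signal at or below 3038400; inconclusive = same 50% fall but final raw signal above 3038400; inactive = fall in fluorescence gain under 50%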;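 also: plate controls were neutral control wells for no effect and wells lacking membranes for full effect; tested at 10 µM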
Target sequence (Q03530 whole entry, looked up): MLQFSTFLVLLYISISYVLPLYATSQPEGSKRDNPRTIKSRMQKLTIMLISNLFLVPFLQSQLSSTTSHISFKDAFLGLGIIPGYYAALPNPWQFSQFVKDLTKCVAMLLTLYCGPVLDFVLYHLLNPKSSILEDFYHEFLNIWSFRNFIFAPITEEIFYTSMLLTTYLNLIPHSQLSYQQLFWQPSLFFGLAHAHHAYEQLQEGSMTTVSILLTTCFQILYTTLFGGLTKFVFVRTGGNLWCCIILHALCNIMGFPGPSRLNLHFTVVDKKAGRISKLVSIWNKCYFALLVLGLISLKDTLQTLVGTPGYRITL
MT1-MMP act inh: blocks activation of human MT1-MMP. P50281. HT1080 RFP-PRO-GFP cells, GFP/RFP ratio fluorescence, overnight; percent of plate control window, DMSO zero. GFP/RFP ratio change, % at 20 µM. 360,000 tested, 0.061% active;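 active = GFP/RFP ratio change of at least 30% with cell ATP level not reduced by more than half and red fluorescence within 50% of control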; also: strong numbers were not always called active
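system = RFP-PRO-GFP reporter HT1080 cells | dosing = 20 µM single dose, 1% DMSO | timing = overnight cell settling, then overnight compound exposure, 37 °C, 5% CO2 | read-out basis = GFP/RFP fluorescence ratio | controls = DMSO and RFP-L50D-GFP cell wells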
Yeast UUG start: alters start codon recognition fidelity in yeast. activity score, % at 18.7 µM. AID 602363. S. cerevisiae UUG-firefly luciferase reporter, luminescence/redox ratio. 350,000 tested, 0.13% active;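 active = replicate mean at a twofold rise or more, about +100% in these data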;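 also: firefly luciferase made from a UUG start codon reports start codon fidelity; reporter light over untreated wells divided by growth signal over untreated wells; some hits fall short of that in this replicate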
eIF4H FP inh: inhibitors of RNA binding by human eIF4H. 290,000 tested, 0.94% active. AID 2012. inhibition, % at 35 µM. Q15056. eIF4H fluorescence polarization binding assay;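 active = 50% or more with normal probe brightness, or confirmed in later tests; inconclusive = above 50% with abnormal brightness, or retests that disagree; inactive = below 50% or failed in later tests; about a fifth of its hits are not listed in these tables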;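 also: calls also rest on retests at 20 µM and on dose response follow-up; 0% = protein and probe with vehicle and 100% = probe without protein; strong numbers were not always called active; many hits fall short of the cut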
CSC inhib: cancer stem cell inhibition; cancer stem cell-like cells viability, luminescence; inhibition, % at 7.5 µM; 300,000 tested, 1.1% active; AID 2717;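 active = mean at 75% or more and at least half the replicates too; inconclusive = mean and replicates disagree; tested in HMLE shEcad cells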;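 also: 0% = median of negative and 100% = median of positive control wells; the first replicate is given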
PABP FP inh: PABP-poly(A) binding inhibition. AID 2014. 290,000 tested, 1% active. P11940. PABP-poly(A) RNA binding, fluorescence polarization. inhibition, % at 35 µM;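 active = 50% or more with normal probe brightness, or confirmed in later tests; inconclusive = above 50% with abnormal brightness, or retests that disagree; inactive = below 50% or failed in later tests; about a fifth of its hits are not listed in these tables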;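 also: calls also rest on retests at 20 µM and on dose response follow-up; controls were probe without protein and protein plus probe with vehicle; some compounds called inactive have numbers as strong as hits; many hits fall short of the cut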
eIF4H FP inh retest: further read-out of eIF4H FP inh, marked with its call; inhibition, %; compound at 20 µM; confirmation average;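 mean of two retest wells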
PABP FP inh retest: recorded beside PABP FP inh, whose call it bears; inhibition, %; compound at 20 µM; confirmation repeats;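 mean of two retest wells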
MT1-MMP act inh RFP: recorded beside MT1-MMP act inh, whose call it bears; RFP signal change, %; measured here: RFP expression control read;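 0 = vehicle wells; hits needed this value within 50% of zero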
The depositor's hits bear a star; i = inactive; u = inconclusive; x = no result given; & = joins results of further samples; [ ] = dose if it differs, or a comment.

SMILES	Env fusion inh	Rce1 inhib	MT1-MMP act inh	MT1-MMP act inh RFP	Yeast UUG start	eIF4H FP inh	CSC inhib	PABP FP inh	others
COCCn1nnnc1C(c1ccccc1OC)N1CCc2ccccc2C1 (stereo not given)	-19	i	0	4	-1	x	-3	x
CCC(=O)/C(=C(/O)c1ccccc1)c1nc2ccccc2[nH]1	-5	i	-2	2	x	-1	-9	2
Cc1ccc(N2C(=O)SC(N(CC(=O)O)c3cccc(C)c3)C2=O)cc1 (stereo not given)	x	i	1	7	-10	-1	1	1
O=C(NNC(=O)C1CCN(C(=O)Nc2ccccc2)CC1)c1ccc([N+](=O)[O-])cc1	2	x	4	1	-17	x	x	x
Cc1ccc(F)cc1NC(=O)COC(=O)C1CC2CCCC(C1)C2=O (stereo not given)	20	x	-1	2	-12	x	x	x
Cc1ccccc1C(=O)NNC(=O)CSc1nnc(C)n1-c1ccccc1	-6	i	-2	1	x	-2	x	10
CCCC(=O)Nc1cnc(NC(=O)c2cccc(F)c2)cc1C	x	i	-1	-1	-42	-3	-16	-10
Cn1c(=O)c2[nH]c(N/N=C(/C#N)C(N)=O)nc2n(C)c1=O	x	i	x	x	x	-5	3	0
Cc1cc(C(=O)CSc2nc3ccc(Cl)cc3[nH]2)c(C)n1CC1CCCO1 (stereo not given)	x	i	-7	-20	x	3	6	3
N#CC1(NC(=O)COC(=O)Cc2n[nH]c(=O)c3ccccc23)CCCCC1	3	i	-2	7	-18	x	-3	x
CCc1nnc(NC(=O)CCC(=O)NCc2ccccc2OC)s1	-48	i	x	x	-16	7	-7	4
O=C(N/N=C/c1cccc([N+](=O)[O-])c1O)C(O)(c1ccccc1)c1ccccc1	20	i	1	0	-13	7	10	9
C[C@@H](N)C(=O)NC[C@H]1CC[C@H](C(=O)N[C@@H](Cc2ccccc2)C(=O)O)CC1	-6	i	2	7	-16	5	1	6
C[C@@H]1CN([C@@H](C)CO)C(=O)CCCn2nncc2CO[C@H]1CN(C)Cc1cccc(C(F)(F)F)c1	1[16.7 µM]	x	4	11	-2&16&14	x	x	x
O=C(O)C12CC3CC(C1)CC(n1ncc(NCc4ccccc4)c(Cl)c1=O)(C3)C2	-18	i	-14	-4	5	-3	-15	-6
O=C(Nc1ccc(Cl)cc1)/C(=C1\CCCN1)[N+](=O)[O-]	-1	i	2	0	-14	-1	2	6
CN(CC(=O)Nc1ccc(OC(F)(F)F)cc1)C(=O)Cc1cccs1	62*	x	5	-1	2	x	1	x
O=C(/C=C/c1cn(-c2ccccc2)nc1-c1cccnc1)N1CCCCC1	-15	i	0	-2	x	3	-1	10
O=C(c1ccc(C(F)(F)F)cc1)N1CCC(=O)N(C(COCc2ccc(Cl)cc2)Cc2ccccc2)CC1 (stereo not given)	28	i	-5	-12	-19	-1	21	3
CN(C)Cc1c(C(=O)N/N=C/c2cccc(OCc3ccc(F)cc3)c2)nnn1-c1nonc1N	7	i	3	-3	-10	-10	-7	5
Cc1nnc(SCSc2nnc(C)s2)s1	x	i	-1	8	-18	9	1	-10
CCN1C(=O)C(O)(CC(=O)c2ccc3c(c2)OCCO3)c2ccccc21 (stereo not given)	-58	i	-1	3	-9	-2	-10	-6
O=C(CN1C(=O)C2C3CCC(C3)C2C1=O)OCC(=O)c1ccc(Br)cc1 (stereo not given)	5	i	-1	2	-21	-6	-4	0
CCOC(=O)c1c(-c2ccc(C)cc2)csc1NC(=O)C1CC=CCC1C(=O)O (stereo not given)	x	i	2	2	-6	6	30	-15
C=CCN1CN(Cc2ccco2)CNC1=S	-7	i	2	4	x	-3	x	-6
CCOC(=O)c1oc2ccc3c(c2c1C)C(=O)CC1(CCN(C(=O)OCC)CC1)O3	x	i	-4	-17	8	-10	4	-9
CC1CCCC(NC(=O)COC(=O)COc2ccc(C#N)cc2)C1C (stereo not given)	-5	x	0	3	11	x	x	x
N/C(Cc1ccc([N+](=O)[O-])cc1)=N\OC(=O)c1ccc(Br)o1	-4	i	7	3	x	-3	x	-1
Cc1cc(N2CCN(C)CC2)nc2ccc(NC(=S)NCCC(C)C)cc12	-6	i	-3	-10	-31	-6	83*	-13
Cn1cc(-c2csc(C(C)(O)c3cccc(F)c3)n2)cn1 (stereo not given)	17	x	2	-2	-10	x	x	x
CCCC(=O)NC(Nc1cccc(C(F)(F)F)c1)C(Cl)(Cl)Cl (stereo not given)	x	i	4	1	-5	-2	20	-14
N#CC1=C(N)OC2=C(C(=O)CCC2)C1c1cccs1 (stereo not given)	-3	i	-5	1	x	-3	-2	8
CCCC(=O)c1ccc(N2CCN(C(=O)c3ccccc3Br)CC2)c(F)c1	x	i	-1	-19	15	6	5	-6
Cc1noc(C)c1C(=O)N1CCC1(C)C(=O)NS(=O)(=O)c1ccc(Br)cc1 (stereo not given)	-3	x	0	4	-1	x	x	x
Clc1ccc(CNCC2CCCO2)c(Cl)c1 (stereo not given)	-16	i	-4	2	0	x	-1	x
c1ccc(NCc2cccc3ccccc23)nc1	1	i	3	0	4	4	6	11
Cc1cccc(N(C(=O)c2snc(C(N)=O)c2N)C(C(=O)NCC2CCCO2)c2ccc(N(C)C)cc2)c1 (stereo not given)	0	i	-7	-7	-12	-4	-9	-3
COc1c2ccc(OCC/C(C)=C/C(=O)C=C(C)C)cc2nc2occc12	-37	x	x	x	-16	x	23	x
CC(=O)NNC(=O)C(O)(c1ccccc1)c1ccccc1	-12	i	0	1	-2	-13	8	-7
c1ccc(-n2ncc3c2ncn2nnnc32)cc1	x	i	3	1	-10	-10	x	5
COc1cc(/C=C/C(=O)OCC(=O)NCCC2=CCCCC2)ccc1O	28	i	-1	0	x	-10	14	-1
COc1ccccc1N1CCN(c2cc(C)nc3nc(C)nn23)CC1	7	i	1	7	13	1	x	4
Cc1cc(C)nc(NC(=O)c2ccc(Cl)cc2Cl)n1	4	i	1	2	-1	-9	-3	-14
COc1cccc(NC(=O)C2CCCN2C(=O)Nc2cccc(F)c2)c1 (stereo not given)	-18	i	6	-2	-11	-2	-15	4
CC(=O)c1ccc(OC2(C)CCN(Cc3ccc4c(c3)OCCO4)C2)cc1 (stereo not given)	-8	x	-1	5	-6	x	x	x
CCSc1nnc(-c2cc(Br)ccc2NC(C)=O)c(=O)[nH]1	6	i	0	4	-13	2	-13	-3
COc1ccc(S(=O)(=O)NCCCn2ccnc2)cc1C(C)(C)C	10	i	1	-2	-11	7	-16	6
CCC(=O)N1CCC2(CC1)Oc1ccc(Cl)cc1C(=O)C21CC(c2ccc(Cl)cc2)=NO1 (stereo not given)	-51	i	4	3	-25	1	24	11
S=c1nc2[nH]c3ccccc3c2n[nH]1	-14	x	3	3	-7	x	x	x
CCCCCCn1c(SCC(=O)c2ccccc2)nc2c1c(=O)[nH]c(=O)n2C	11	i	-2	-5	-20	6	-5	2
Cc1cccc(OCc2nc(-c3ccccn3)n[nH]2)c1	x	i	2	4	-34	0	5	-10
COc1ccc(C(=O)OCC(=O)Nc2ccccc2)cc1[N+](=O)[O-]	3	i	1	2	x	-7	-1	-44
Cc1ccc(C(=O)Nc2ccc(N3CCN(C)CC3)cc2)c(Cl)c1	-9	i	-6	1	-15	-7	-8	-8
OC[C@@H]1CN(Cc2ccc(-c3ccccc3)cc2)C[C@H](n2cnc3c(NC4CCCC4)ncnc32)O1	35	x	21	-28	-5	x	x	x
O=C(Cc1cccs1)Nc1nnc(SCC(=O)NC2CCCCC2)s1	22	i	-4	6	12	25	-13	28
CCOC(=O)C(CCCOc1ccccc1C)C(=O)OCC	x	x	5	2	-14	52	-23	7	eIF4H FP inh retest=-1;PABP FP inh retest=-6
Cc1nc2ccccc2cc1C(=O)O	x	i	-1	0	-7	-6	5	6
COCCn1c(Cc2ccccc2)nnc1SCC(=O)N(C)C	x	i	3	0	x	-6	4	-3
CC1CCC(C(C)C)C(OC(=O)C2=C3c4ccccc4S(=O)(=O)N3CC2)C1 (stereo not given)	x	u	-10	0	-9	3	-19	18
COc1ccc(S(=O)(=O)N2CCCN(CC(=O)Nc3ccccc3F)CC2)cc1	2	i	-2	0	-4	-2	-9	0

Following part:
SMILES	Env fusion inh	Rce1 inhib	MT1-MMP act inh	MT1-MMP act inh RFP	Yeast UUG start	eIF4H FP inh	CSC inhib	PABP FP inh	others
CCCn1c(C)cc(/C=C(\C#N)C(=O)OCC(=O)N(C)c2c(N)n(Cc3ccccc3)c(=O)[nH]c2=O)c1C	-29	i	-2	-1	-5	x	5	x
Cc1cc2ncc(C(=O)Nc3ccccc3)c(C)n2n1	x	i	6	5	x	14	1	7
Cc1nn2c(NCc3ccccn3)cc(C(C)C)nc2c1-c1ccccc1	28	i	-1	-10	x	9	51	-11
COc1ccccc1N1CCN(/N=C/c2c(C)nn(-c3ccccc3)c2C)CC1	51	i	6	0	-4	-6	-3	-9
O=c1[nH]c(CSc2ncn[nH]2)nc2ccccc12	8	i	3	8	-13	2	-20	-11
O=C(CCn1cnc2ccccc2c1=O)Nc1ccc(S(=O)(=O)N2CCCCC2)cc1	x	i	-3	-5	-3	-4	x	-14
COc1ccc(C(=S)N2CCC(C(N)=O)CC2)cc1Br	8	i	-4	0	x	-8	4	-14
COc1ccccc1OCC(=O)Nc1ccc(S(=O)(=O)N2CCCC2)cc1	-11	i	-2	2	0	30	5	20
O=C(Nc1nc(-c2ccc(Br)cc2)cs1)c1cccnc1	-22	i	1	-4	x	-8	-5	2
COc1ccc(OC)c(C2=Nn3c(nnc3-c3ccncc3)SC2)c1	10	i	-6	-3	x	x	-6	x
Cc1c(Nc2cc(=O)oc3ccccc23)c(=O)n(-c2ccccc2)n1C	-125	i	x	x	-15	-4	0	5
O=c1[nH]c(SCc2nc3ccccc3n2Cc2ccccc2)nc2ccccc12	x	i	5	1	-5	8	-1	-5
C=CCn1c(SC(C)C(=O)Nc2ccc(Cl)cn2)nnc1C1CC1 (stereo not given)	1	i	0	-1	-4	x	7	x
CN(CCC#N)C(=O)c1cc2c(s1)-c1ccccc1SC2	-28	i	0	1	-5	-5	-4	-3
CCOC(=O)c1cnc2nc(C)nn2c1N	-7	i	4	6	-17	2	-2	31
Cc1c(Br)c([N+](=O)[O-])nn1CC(=O)Nc1cccc2nonc12	13	i	4	0	-6	0	x	4
Cc1c(-c2ccc(Cl)cc2)[n+](=O)c2c(n1[O-])CCCC2	6	i	1	2	-6	-6	-16	-1
CCn1cc(C(=O)NCCCN2CCCC(C)C2)c(=O)c2cc(S(=O)(=O)N3CCc4ccccc4C3)ccc21 (stereo not given)	35	i	0	-2	13	-7	-5	-2
COc1ccc2[nH]c(C(=O)N/N=C/c3ccccc3OC)cc2c1	-37	i	-3	-7	-1	-8	37	-5
CC(C)C(=O)N[C@@H]1c2ccccc2CC[C@H]1OCc1ccccc1	-4	x	1	10	4	x	x	x
CCn1c(CC(=O)Nc2ccc(C)cc2)nnc1SCC(=O)Nc1nc(C)cs1	-15	i	-3	2	-18	11	5	-2
CCOC(=O)CN(c1ccccn1)S(=O)(=O)c1ccccc1	-70	i	7	2	-6	-8	-9	-3
Cc1ccc(S(=O)(=O)N(C)[C@H]2C[C@H]3c4[nH]c5ccccc5c4CCN3C[C@H]2[C@H](C)O)cc1	-19	x	-1	2	-10	x	x	x

Not all compounds are listed. The share of hits here may be higher or lower than overall.
